PrP UTR inh: inhibition of PrP 5' UTR reporter expression | cell-based PrP 5' UTR mRNA reporter, plate reader | inhibition, % (no concentration beside the values) | actives 0.35% (n = 340,000) | AID 488862, 2010;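 active = every replicate at 50% or more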;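 note: 0 = median of the neutral control wells; tested in H4 reporter cells; numbers are from one replicate; inactives centre near -14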
Sa RN4220 lethal: growth inhibition of S. aureus RN4220, primary screen, OD600 | 16 h | inhibition, % (concentration not given with the values) | actives 0.33% (n = 330,000) | AID 1259311, 2017;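 active = z-score of -3 or lower and OD600 up to 0.18 on both plates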;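 note: plate controls were untreated cells for no effect and reference antibiotic for full effect; stock transfer was 100 nL into about 80 µL; one replicate is shown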
Mtb hypoxia inh: PubChem AID 1159583 | M. tuberculosis hypoxia-regulated fluorescent reporter, fluorescence | fluorescence inhibition, % (test concentration not listed) | actives 0.1% (n = 300,000);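 active = 35 to 45% if threefold the growth effect, above 45% if 1.5-fold the growth effect; inactive = the rest, general growth blockers included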;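 note: wells of about 50 µL received 100 nL stock; 0% = vehicle wells and 100% = reference inhibitor wells; whole bacteria with a GFP reporter of the hypoxia response; strong numbers were not always called active; many hits fall short of the cut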
Autofluor counter: counter-screen for toxin protease inhibitors: compound fluorescence; compound autofluorescence counterscreen, microsphere flow cytometry; hits give high values; fluorescence intensity (no concentration beside the values); actives 3.1% (n = 360,000); AID 624483;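 active = at least 3 SD above the mean of all compounds, about 16000 in these data; inconclusive = too few beads counted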;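 note: 100 nL of 1 mM stock went into each well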
BJeLR viability: MLPCN primary cell-based screen for lethality selective to Ras in HRASV12 cells | actives 0.17% (n = 300,000) | BJeLR (HRASV12) viability, CellTiter-Glo ATP luminescence, 48 h; reference of the scale not given here | inhibition, % (no concentration beside the values);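 active = replicate mean above 50%; inconclusive = above 50% but judged a plate artefact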;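 note: 50 nL library stock added to about 25 µL; numbers are from one replicate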
ugtP null kill: growth inhibition of ugtP-null S. aureus, primary screen, RN4220 ugtP deletion, OD600 | 16 h; some inactives read as strong as hits | growth inhibition, % (test concentration not listed) | actives 0.54% (n = 330,000) | AID 1259309, 2017;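 active = z-score under -3 and OD600 up to 0.15 on both plates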;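 note: plate controls were untreated wells for no effect and antibiotic for full effect; wells of about 80 µL received 100 nL stock; the first replicate is given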
Mtb hypoxia inh growth: further read-out of Mtb hypoxia inh, marked with its call; growth inhibition, %; measured here: M. tuberculosis growth (absorbance);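 0% = vehicle and 100% = reference antibiotic; read after six days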
An asterisk follows results filed as active; ? = inconclusive; . = no result given.

SMILES	PrP UTR inh	Sa RN4220 lethal	Mtb hypoxia inh	Mtb hypoxia inh growth	Autofluor counter	BJeLR viability	ugtP null kill
CCCCNC(=O)CCC(=O)Nc1ncc(-c2ccc(C)cc2)n1C	-35	9.1	3	14	20268*	-4	-12
O=C(CSc1ccc2nnc(-c3ccc(Cl)cc3)n2n1)N1CCc2ccccc21	-9	0.9	6	6	4323	0	7
CCOc1cc(/C=C2\C(=O)N(Cc3ccc(C)cc3)C(C)=C2C(=O)OC)ccc1O	-4	23	.	.	4518	1	-9
COc1ccc(C(=O)Nc2cccc(C(C)=NNC(=O)c3ccoc3C)c2)cc1OC	.	-3.2	8	2	.	.	2
C#CCN1C(=O)S/C(=C\c2ccc(-c3ccc(C(=O)O)cc3C)o2)C1=O	-60	3.7	-8	6	3605	-4	1
CCCN(CC(=O)Nc1ccc(F)c(F)c1F)C(=O)c1ccc(N2CCCC2=O)cc1	-11	7.4	0	0	4562	.	12
Cc1ccc(-c2noc(CCC(=O)NCc3ccco3)n2)cc1	-33	-4.0	3	1	19424*	-3	1
Clc1cc(Cl)cc(NC2=NCCS2)c1	-23	2.4	7	2	.	7	1
COC(=O)C(CC(=O)c1ccc(Cl)cc1)c1ccccc1 (centres undefined)	-8	-6.6	.	.	3712	.	4
O=C(N/N=C/c1ccccc1)c1ccc(NC(=O)c2ccc(F)cc2)cc1	-30	.	.	.	3517	3	.
CCCCCn1c(SCCc2ccccc2)nc2c1c(=O)[nH]c(=O)n2C	-12	7.3	.	.	2896	2	6
O=C(COC(=O)c1c(Cl)cccc1Cl)NCc1cccs1	-24	7.7	9	8	3289	.	6
CCOc1cc(C2NC(=O)NC(c3ccccc3)=C2C(C)=O)ccc1OCC(N)=O (centres undefined)	1	17	10	5	2439	0	18
O=[N+]([O-])c1ccc(OCc2cn([C@@H](CO)c3ccccc3)nn2)c(Br)c1	-8	.	.	.	3965	-2	.
CC(=O)c1sc(Nc2nc3ccc(F)cc3s2)nc1C	-70	50	4	-2	3699	6	37
CN(C)C=NC(=O)c1cc(C(=O)c2ccc(C(C)(C)C)cc2)c[nH]1	-84	6.2	-1	-5	4350	-1	12
COC1c2ccccc2C(=O)N1Cc1ccc(F)cc1 (centres undefined)	3	0.4	9	15	2870	-7	7
COc1ccc(S(=O)(=O)N2CCOCC2)cc1NC(=O)CO/N=C/c1ccccc1OC(F)F	3	.	.	.	2105	-10	.
C=C(C)C(=O)Nc1ccc2c(c1)OCCOCCOCCO2	-3	4.9	4	1	.	-8	10
Cc1cnc(C(=O)OCC(=O)Nc2cccc3ccccc23)cn1	-32	4.4	26*	57*	3912	.	4
O=C(CSc1nc2ccccc2c(=O)n1Cc1ccc(F)cc1)NCc1cccs1	1	5.8	11	0	2601	6	-3
Cc1ccc(S(=O)(=O)N[C@H](C(=O)N2CCC(C(=O)N[C@H](C(=O)O)c3ccccc3)CC2)C(C)C)cc1	-16	3.6	.	.	4153	11	5
Cc1ccc(-c2csc3nc4c5ccccc5c(NCCCN(C)C)nn4c(=O)c23)cc1	-7	-1.4	19	25	5593	7	-6
CC(C)OC(=O)CSc1nnc(-c2ccc(Cl)cc2Cl)o1	-2	-2.5	4	8	3091	-4	-8
CC(C)c1nc2ccc(NC(=O)C3CCCCC3)cc2[nH]1	-24	-0.8	.	.	4328	.	4
Cc1ccccc1OCC(=O)N/N=C/c1ccc2c(c1)OCCO2	-16	.	.	.	6860	-2	.
CCOC(=O)c1ccc(C(=O)OCC)c(NC(=S)Nc2ccc([N+](=O)[O-])cc2OC)c1	-40	-5.6	0	-1	2083	-14	-4
CCN1CCN(c2ccc(N)cc2)CC1	-31	2.0	10	8	3419	-3	5
COc1ccc(Cl)cc1NC(=O)CSc1nc(Nc2ccccc2)nc(N2CCOCC2)n1	-5	-6.2	-5	4	?	3	-38
O=C(OCc1nc2ccccc2s1)c1ccc(Br)o1	-18	1.6	-14	1	3921	-3	2
CC(=O)N1CCN(C(=O)c2cccc(NS(=O)(=O)c3ccc(Br)cc3)c2)CC1	-6	5.6	11	2	6216	-7	6
CCOC(=O)/C(N=Nc1c(C)n(C)n(-c2ccccc2)c1=O)=C(\C)O	-3	6.5	15	11	2419	-3	6
CN(c1ccccc1)S(=O)(=O)c1ccc(NC(=O)c2cccs2)cc1	-8	6.7	1	4	3532	3	-6
Cc1nc2ccccc2c(=O)n1-c1cccc(NS(=O)(=O)c2ccccc2)c1	-25	1.3	-6	0	.	8	1
COc1nc(OC)nc(N2CCC(C(=O)NCc3cccs3)CC2)n1	-6	1.8	-3	-1	21111*	0	-3
O=C(CSc1nnc2scc(-c3ccccc3)n12)NCC1CCCO1 (centres undefined)	11	2.6	4	5	21160*	7	6
COc1ccc(CCn2c(O)c(C=Nc3ccc(NC(C)=O)cc3)c(=O)[nH]c2=O)cc1OC	-26	-1.7	-9	13	6359	5	1
CCC(NC(=O)c1c(C)c(-c2ccccc2)nc2ccccc12)c1ccccc1 (centres undefined)	.	2.5	-2	10	.	.	-16
O=C(COc1ccc(-c2ccccc2)cc1)NN=C1CCCC1	-7	-4.9	-7	8	4339	.	2
COP1(=O)C=CC(N(Cc2ccccc2)S(=O)(=O)c2ccccc2[N+](=O)[O-])C(C)O1 (centres undefined)	.	15	21	7	.	.	5
Cc1ccccc1C(=O)Nc1nc2c(C)csc2c(=O)s1	-17	1.8	8	11	.	5	3
OCC(Cc1ccccc1)NCc1ccccc1C(F)(F)F (centres undefined)	-25	5.7	-3	0	2484	-9	11
CCCCCCCCN1[C@@H](CC(C)=O)c2cc(C(F)(F)F)ccc2S1(=O)=O	-8	-3.5	3	-2	6247	3	7
Cc1cc(CNC(=O)CCc2nnc(CCCCc3ccccc3)o2)nn1C	-18	2.4	17	8	1978	-16	6
COc1cc([N+](=O)[O-])c(OC)cc1SCc1n[nH]c(=S)n1-c1ccc(F)cc1	-23	-4.4	-4	-4	4056	7	-12
CC(C)N(CCNC(=O)C1CCCN(c2ncnc3c2nc2n3CCCCC2)C1)Cc1ccccc1 (centres undefined)	-20	1.6	9	13	5374	8	0
O=S(=O)(NCCc1ccccn1)c1ccc(F)c(F)c1	-4	4.3	.	.	3584	-3	1
CCOC(=O)C1=C(C)N(C)C(C)=C(C(=O)OCC)C1c1ccccc1	-12	10	-2	1	3278	8	5
O=C1CN(C(=O)COC(=O)c2ccc(Br)o2)c2ccccc2N1	-21	6.9	26*	56*	3931	.	1
O=C(Nc1cccc(F)c1)C1CCCN(C(=O)c2ccc(Cl)cc2)C1 (centres undefined)	-16	2.3	-2	-2	3681	.	4

Additional structures.
SMILES	PrP UTR inh	Sa RN4220 lethal	Mtb hypoxia inh	Mtb hypoxia inh growth	Autofluor counter	BJeLR viability	ugtP null kill
CC1CCCCC1NC(=O)/C=C/c1nc2ccccc2s1 (centres undefined)	23	4.0	-2	7	4405	-6	9
COc1ccc(C(=O)N2CCOC2CNC(=O)C(=O)NCc2ccc(Cl)cc2)cc1 (centres undefined)	1	3.0	-1	3	3501	4	3
O=C(Nc1cccn2ncnc12)c1ccccc1	-32	2.8	5	8	21325*	-3	2
CCOC(=O)c1cnc2c(C)cccc2c1NCCCN1CCOCC1	-22	2.8	6	12	3886	1	0
Cc1c(C)[n+](=O)c(-c2ccc(Br)cc2)c(C)n1[O-]	6	1.4	5	7	6070	0	7
Cc1nn(C(=O)c2cccnc2)c(C)c1Sc1ccc(Br)cc1	-33	3.7	-5	2	9619	-5	-11
Cc1ccc2[nH]c(C(=O)N3CCN(C(c4ccccc4)c4ccccc4)CC3)cc2c1	-11	-5.6	5	17	4109	-1	20
COc1cc2nncc(SC)c2cc1OC	0	5.7	15	6	3937	.	9
O=C(COc1ccccc1)N[C@@H]1c2ccccc2CC[C@@H]1O	-24	1.0	4	1	3437	.	5
CC(NC(=O)c1ccco1)C(=O)Nc1nc(-c2ccccn2)cs1 (centres undefined)	-12	3.1	-1	6	20695*	2	-12
N#CCCn1c(SCC(=O)NCc2ccco2)nc2ccccc21	-14	3.1	.	.	2651	2	0
CCOC(=O)c1[nH]c(=O)[nH]c1CN(Cc1ccco1)Cc1[nH]c(=O)[nH]c1C(=O)OCC	-38	1.0	3	16	4675	-8	10
Cc1nnsc1C(=O)NNS(=O)(=O)c1ccccc1	-5	-0.9	.	.	4685	24	2
COc1ccc(C=NNC(=O)c2sc(N)nc2C)cc1OC	.	1.0	9	13	.	.	6
COc1ccc(C(C)(C)C)cc1NC(=O)C1=CC=CN2CCS(=O)(=O)N=C12	-12	3.4	-5	0	8763	.	2
O=C(CSCc1ccc(Br)cc1)N1CCOCC1	-35	7.4	8	7	10667	3	4
CCc1c(C(=O)N/N=C/c2ccco2)nnn1-c1nonc1N	-16	.	.	.	3032	11	.
COc1ccc(OCCC(=O)OCC(=O)c2ccc[nH]2)cc1	-9	3.1	1	8	4305	11	4
CCc1[nH]nc(C(=O)NC2CCCc3c2cnn3-c2cc(C)cc(C)c2)c1C (centres undefined)	-33	4.7	6	-1	5505	2	2
CC1=C(C/C(C)=C/c2ccccc2)/C(=C/CO)[C@H](O)[C@](C)(O)C12CC2	-22	.	.	.	3993	-2	.
CCN(CC)S(=O)(=O)c1cc(NC(=O)C(C)Nc2ccccc2N2CCOCC2)ccc1C (centres undefined)	-17	1.5	2	8	3610	6	0
COCCCN1C(=O)C(=O)/C(=C(/O)c2ccccc2)C1c1ccc(N(C)C)cc1 (centres undefined)	-18	2.4	-4	1	11458	18	0
CN(C(=O)COC(=O)c1ccc2ccccc2n1)C1CCS(=O)(=O)C1 (centres undefined)	1	1.7	3	-2	2055	-1	0
COCCNC(=O)c1c(NC(=O)c2ccc(Br)o2)n(Cc2ccccc2)c2nc3ccccc3nc12	-15	.	.	.	3089	5	.
COc1ccc(CN(C)CC2CCCN(CCc3ccc(F)cc3)C2)c(OC)c1OC (centres undefined)	-1	2.7	2	1	3699	3	5
Cn1c(=O)c2c(nc(Oc3ccc(-c4ccccc4)cc3)n2C)n(C)c1=O	-30	10	5	14	11137	-6	-3
COc1ccc2cc(C(=O)C3CCCN(C(=O)Cc4c(C)noc4C)C3)ccc2c1 (centres undefined)	-20	-2.6	4	16	3943	1	1
COc1ccccc1NC(=O)c1ccccc1S(=O)(=O)c1ccccc1[N+](=O)[O-]	-7	7.1	-4	-11	1958	-3	9
COC(=O)Cc1c(C)c2ccc(OCC(=O)NC3CCS(=O)(=O)C3)cc2oc1=O (centres undefined)	-5	4.3	2	-6	5424	-3	7
Cc1cccc(NC(=O)C(Cc2ccccc2)c2nn[nH]n2)c1C (centres undefined)	12	0.9	3	3	3740	-5	13
CCc1ccc(N2CN(Cc3cccnc3)CNC2=S)cc1	-12	2.7	14	32	4108	-3	7
Cc1ccc(C2=NN(CCC(=O)NCCC(C)C)C(=O)CC2)cc1	.	4.5	5	2	.	1	7
COc1ccccc1CN1CC(C(=O)NCc2cnn(C)c2)CCC1=O (centres undefined)	-24	1.0	13	4	5720	-8	3
COc1ccc(-c2nn3c(-c4ccc(F)cc4)nnc3s2)cc1	-32	5.4	9	8	4063	6	-21
Cc1ccc2nc(SCc3nc4cc(Cl)ccc4c(=O)[nH]3)[nH]c2c1	-19	-3.4	11	2	3256	15	3
Cc1ccc(S(=O)(=O)CC(C)N2CCN(C3CCCCC3)CC2)cc1 (centres undefined)	-26	-1.4	-5	-15	8544	8	2

No new results follow: an excerpt of the list.
SMILES	PrP UTR inh	Sa RN4220 lethal	Mtb hypoxia inh	Mtb hypoxia inh growth	Autofluor counter	BJeLR viability	ugtP null kill
CCc1ccc(N2CN(Cc3cccnc3)CNC2=S)cc1	-12	2.7	14	32	4108	-3	7
Cc1ccc(C2=NN(CCC(=O)NCCC(C)C)C(=O)CC2)cc1	.	4.5	5	2	.	1	7
COc1ccccc1CN1CC(C(=O)NCc2cnn(C)c2)CCC1=O (centres undefined)	-24	1.0	13	4	5720	-8	3
COc1ccc(-c2nn3c(-c4ccc(F)cc4)nnc3s2)cc1	-32	5.4	9	8	4063	6	-21
Cc1ccc2nc(SCc3nc4cc(Cl)ccc4c(=O)[nH]3)[nH]c2c1	-19	-3.4	11	2	3256	15	3
Cc1ccc(S(=O)(=O)CC(C)N2CCN(C3CCCCC3)CC2)cc1 (centres undefined)	-26	-1.4	-5	-15	8544	8	2
